HIV Env fusion: inhibitors of HIV Env-mediated cell fusion. 1.1% of 360,000 active. inhibition, % at 12.3 µM. HeLa-JRFL Env/CEM21 cell fusion, luciferase;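 active means mean replicate inhibition score of at least 50 and every replicate individually at or above 50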;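 further: 0% = plate neutral controls and 100% = maraviroc near 300 nM; one replicate is shown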
eIF4H inh: inhibitors of RNA binding by human eIF4H. eIF4H fluorescence polarization binding assay. inhibition, % at 35 µM. 0.94% of 290,000 active. AID 2012;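 active means 50% or more with normal probe brightness, or confirmed in later tests; about a fifth of its hits are not listed in these tables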;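 further: calls also rest on retests at 20 µM and on dose response follow-up; 0% = protein and probe with vehicle and 100% = probe without protein; strong numbers were not always called active; many hits fall short of the cut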
UUG fidelity: modulators of start codon recognition fidelity in yeast; S. cerevisiae UUG-firefly luciferase reporter, luminescence/redox ratio; activity score, % at 18.7 µM; 0.13% of 350,000 active; AID 602363;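 active means replicate mean at a twofold rise or more, about +100% in these data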;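 further: firefly luciferase made from a UUG start codon reports start codon fidelity; reporter light over untreated wells divided by growth signal over untreated wells; some hits fall short of that in this replicate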
CSC inhib: cancer stem cell inhibition; cancer stem cell-like cells viability, luminescence; 1.1% of 300,000 active; inhibition, % at 7.5 µM; AID 2717;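 active means mean at 75% or more and at least half the replicates too; tested in HMLE shEcad cells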;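 further: 0% = median of negative and 100% = median of positive control wells; the first replicate is given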
MT1-MMP act inh: inhibitors of human MT1-MMP activation; P50281; HT1080 RFP-PRO-GFP cells, GFP/RFP ratio fluorescence, overnight; percent of plate control window, DMSO zero; GFP/RFP ratio change, % at 20 µM; 0.061% of 360,000 active; AID 651647;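 active means GFP/RFP ratio change of at least 30% with cell ATP level not reduced by more than half and red fluorescence within 50% of control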; further: strong numbers were not always called active
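Assay system: HT1080 cells carrying an RFP-PRO-GFP reporter | Dosing: Single dose of 20 µM compound, 1% DMSO final | Incubation: Cells overnight before dosing, compound overnight, 37 °C, 5% CO2 | Evaluation: GFP/RFP fluorescence ratio | Control set: DMSO and RFP-L50D-GFP cell wells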
Rce1 inh: yeast Ras-converting enzyme inhibition; calls only; yeast membranes, quenched prenylated peptide cleavage fluorescence; 0.27% of 290,000 active;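 active means fall in fluorescence gain of 50% or more versus controls, with final raw signal at or below 3038400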;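 further: plate controls were neutral control wells for no effect and wells lacking membranes for full effect; tested at 10 µM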
Target sequence (Q03530 whole entry, looked up): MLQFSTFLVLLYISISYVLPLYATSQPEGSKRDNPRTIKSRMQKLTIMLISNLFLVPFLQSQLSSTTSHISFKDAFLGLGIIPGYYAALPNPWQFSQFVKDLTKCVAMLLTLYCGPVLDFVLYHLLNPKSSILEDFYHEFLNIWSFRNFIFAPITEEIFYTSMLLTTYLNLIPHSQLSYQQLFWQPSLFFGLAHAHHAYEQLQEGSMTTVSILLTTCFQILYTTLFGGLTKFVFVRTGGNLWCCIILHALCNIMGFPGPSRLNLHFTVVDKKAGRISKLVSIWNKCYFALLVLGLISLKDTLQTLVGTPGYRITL
PABP FP inh: blocks human PABP binding to poly(A) RNA. P11940. inhibition, % at 35 µM. 1% of 290,000 active. fluorescence polarization;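 active means 50% or more with normal probe brightness, or confirmed in later tests; about a fifth of its hits are not listed in these tables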;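 further: calls also rest on retests at 20 µM and on dose response follow-up; controls were probe without protein and protein plus probe with vehicle; some compounds called inactive have numbers as strong as hits; many hits fall short of the cut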
Target sequence (P11940 whole entry, looked up): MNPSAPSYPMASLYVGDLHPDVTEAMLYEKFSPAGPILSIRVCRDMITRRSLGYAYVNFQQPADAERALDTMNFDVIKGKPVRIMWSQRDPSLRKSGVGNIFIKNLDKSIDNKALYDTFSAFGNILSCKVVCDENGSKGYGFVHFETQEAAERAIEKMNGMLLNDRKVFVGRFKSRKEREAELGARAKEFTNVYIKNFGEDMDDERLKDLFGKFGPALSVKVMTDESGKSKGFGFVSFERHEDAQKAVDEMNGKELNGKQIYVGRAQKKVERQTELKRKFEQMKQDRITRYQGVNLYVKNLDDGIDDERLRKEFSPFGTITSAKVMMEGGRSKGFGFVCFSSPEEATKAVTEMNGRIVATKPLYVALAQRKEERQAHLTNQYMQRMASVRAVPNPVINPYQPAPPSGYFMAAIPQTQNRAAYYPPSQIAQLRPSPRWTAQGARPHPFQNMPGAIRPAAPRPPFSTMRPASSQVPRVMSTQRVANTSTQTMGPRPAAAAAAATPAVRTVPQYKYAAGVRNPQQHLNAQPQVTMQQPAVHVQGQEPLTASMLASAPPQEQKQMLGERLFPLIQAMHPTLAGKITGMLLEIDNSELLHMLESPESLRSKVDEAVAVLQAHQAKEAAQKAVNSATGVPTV
MT1-MMP act inh RFP: second read-out of MT1-MMP act inh, no call of its own (marks repeat the call); RFP signal change, %; measured here: RFP expression control read;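 0 = vehicle wells; hits needed this value within 50% of zero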
The depositor's hits bear a star; i = inactive; . = no result given; & = joins results of further samples; [ ] = another dose, or the depositor's remark. These rows are one share of the data. The share of hits here may be higher or lower than overall.

SMILES | HIV Env fusion | eIF4H inh | UUG fidelity | CSC inhib | MT1-MMP act inh | MT1-MMP act inh RFP | Rce1 inh | PABP FP inh
CSc1nc(Cl)cc(Nc2ccc(O)cc2)n1 | -37 | 3 | . | -7 | 3 | -4 | i | -12
Cc1sc2ncn(CC(=O)NCC(=O)N(C)Cc3ccccc3)c(=O)c2c1C | 6 | 3 | -5 | -2 | 2 | -2 | i | 48
COc1ccc(NC(C)=O)cc1CNC(=O)COc1ccccc1C(=O)Nc1cccc(C)c1C | 6 | -3 | 20 | -6 | -1 | 1 | i | 0
CC(C)OC(=O)CSc1nc(C(C)C)nc2ccccc12 | 15 | -2 | . | 1 | -3 | 1 | i | -15
COc1ccc(N/C=C(\[N+](=O)[O-])S(=O)(=O)c2ccccc2)cc1 | 1 | -8 | -4 | 23 | 3 | 3 | i | 9
CCCNC(=O)c1ccccc1NC(=O)C1COc2ccccc2O1 (stereo not given) | -31 | 0 | -13 | 13 | -3 | -6 | i | 6
O=C(Cc1ccccc1)c1c[nH]c(C(=O)O)c1 | -28 | -8 | . | 13 | 2 | 5 | i | 2
Nc1nc(-c2cccnc2)nn1C(=O)c1ccc(Cl)cc1 | 1 | -8 | -18 | . | -1 | -2 | i | 2
O=C(CSc1n[nH]c(-c2ccccc2)n1)N1CCOCC1 | 2 | -4 | -9 | -8 | 0 | 3 | i | 2
O=C(Cc1c(C(=O)O)[nH]c2ccc(Cl)cc12)Nc1ccc2c(c1)OCCO2 | . | 1 | -7 | 5 | 2 | 6 | i | -2
O=S(=O)(c1ccc(F)cc1)N1CCN(S(=O)(=O)c2cc(F)ccc2F)CC1 | -27 | 10 | -6 | -9 | -2 | -1 | i | 3
CC(=O)Oc1ccc(/C=C2\C=C(c3ccc(C)cc3)OC2=O)cc1 | 9 | -5 | -14 | 4 | -2 | -2 | i | -6
O=C(Nc1cc(S(=O)(=O)N2CCCCC2)ccc1Cl)c1ccncc1 | 9 | . | -22 | . | -2 | -1 | . | .
O=C(NCc1ccccc1)NC1(C(=O)Nc2ccc3c(c2)OCCO3)CCCCC1 | 11 | -6 | -26 | -9 | -1 | 3 | i | -1
CCOC(=O)c1c(NC(=O)C2(C)Cc3ccccc3C(=O)O2)sc2c1CCCC2 (stereo not given) | 15 | 11 | -18 | 34 | -14 | -13 | i | -4
Cc1ccc(C(=O)Oc2ccccc2N2CCOCC2)cc1 | 15 | -7 | -3 | -4 | 2 | 3 | i | 0
FC(F)Oc1ccc(/C=N/n2c(Cc3ccc(Br)cc3)n[nH]c2=S)cc1 | 2 | -7 | -17 | 11 | . | . | . | -3
Cc1ccc(-c2noc(CSc3nnc(Cc4cccs4)n3-c3ccccc3)n2)cc1 | 3 | -10 | -14 | 41 | 6 | -7 | i | -10
S=C(Nc1cccc2ccccc12)NC1CCCCC1 | 6 | -10 | -32 | -6 | -2 | -2 | i | 2
COCC(C)Nc1ccc(S(=O)(=O)N2CCCC2)cc1[N+](=O)[O-] (stereo not given) | 0 | -7 | . | -4 | 6 | 5 | i | 3
Cc1cccnc1C(NC(=O)C1CCN(Cc2cn(C)c3ccccc23)CC1)c1ccc(Cl)cc1 (stereo not given) | 30 | . | 2 | . | 1 | -7 | . | .
CCCCc1ccc(C(=O)NC(C(=O)O)C(C)C)cc1 (stereo not given) | -24 | -2 | -7 | 2 | 0 | 0 | i | 7
Cc1ccc(N(C(C)C(=O)O)S(=O)(=O)c2c(C)[nH]c(=O)[nH]c2=O)cc1 (stereo not given) | -12 | -8 | -12 | -5 | -3 | 2 | i | -2
COC(=O)c1sccc1S(=O)(=O)Nc1ccc(Cl)cc1 | 4 | -8 | . | -4 | 2 | 2 | i | 6
Cc1ccc(O)c(C2=NCCNC(C(F)(F)C(F)F)=C2)c1 | 4 | 9 | -12 | . | -1 | -1 | i | 0
SMILES | HIV Env fusion | eIF4H inh | UUG fidelity | CSC inhib | MT1-MMP act inh | MT1-MMP act inh RFP | Rce1 inh | PABP FP inh
Cc1cc(C)n(-c2nc3c(c(=O)[nH]c(=O)n3C)n2CCc2ccccc2)n1 | . | -7 | 30 | 19 | -1 | 1 | i | 4
CCO[C@H]1OC(C(=O)N2CCOCC2)=C[C@@H](c2cn(C(C)=O)c3ccccc23)[C@@H]1CCCO | -5[16.7 µM] | 6 | -3&2 | -6 | 0 | 4 | i | 5
Cc1cc2cc(CN(CCCN3CCOCC3)C(=O)NC3CCCCC3)c(=O)[nH]c2cc1C | -24 | -12 | -2 | -9 | -1 | 4 | i | 0
O=C(CSc1ccc2ccccc2n1)N/N=C/c1ccc(O)cc1 | 18 | 9 | 8 | 57 | 5 | -8 | i | 6
O=C(Nc1nc(-c2ccc(-c3ccccc3)cc2)cs1)C1=COCCO1 | 10 | 17 | . | 22 | 5 | -1 | i | -6
COc1cc(Cl)ccc1OC1(C)CCN(Cc2ccc(SC)cc2)C1 (stereo not given) | 24 | . | -6 | . | -2 | -1 | . | .
CC(C)c1ccccc1OCC(=O)NN1C(=O)c2ccccc2C1=O | 2 | 6 | 9 | -15 | 3 | 7 | i | -4
Cc1ccc(-c2csc(NCCn3c(C)nc4cc(C(F)(F)F)ccc43)n2)cc1 | 10 | . | -13 | 29 | 5 | 4 | . | .
O=C(CN1CCN(C2CCCCC2)CC1)Nc1ccccc1N1CCCCC1 | . | 17 | -18 | 11 | 3 | 2 | i | -3
Cc1nn(-c2ccccc2)c(C)c1C(=O)OCC(N)=O | -13 | 3 | -15 | . | 1 | 5 | i | -2
COC(=O)c1ccc(C(=O)OC)c(NC(=S)N2CCCCC2)c1 | . | -5 | -27 | -5 | 2 | -1 | i | 6
O=C(C[C@H]1C/C=C\CC[C@@H](Cc2ccc(F)cc2)C(=O)O[C@H](c2ccccc2)CNC1=O)N[C@H](CO)Cc1ccccc1 | . | . | -20 | 16 | 0 | -6 | . | .
COc1ccccc1CNc1ncc(-c2ccccc2)n1C | -7 | 12 | -7 | . | 0 | -6 | i | 9
Cc1ccc(S(=O)(=O)N2CCN(C(=O)CN3C(=O)NC4(CCCC4)C3=O)CC2)c(C)c1 | -10 | . | . | . | 4 | 1 | i | .
CCCCC(=O)N(CCOC)c1nnc(-c2ccccc2C)s1 | 20 | -4 | . | 39 | -14 | -6 | i | 7
CS(=O)(=O)N1CCC(C(=O)Nc2ccc(Cl)cc2)CC1 | 7 | 0 | -4 | 28 | 1 | -1 | i | -6
COc1ccc2[nH]c(C)c(CCNC(=S)Nc3cccc(C)c3)c2c1 | 0 | -4 | -22 | -7 | 0 | 1 | i | 2
CCc1ccc(NC(=O)c2cc(C)on2)cc1 | . | -3 | -47 | 6 | 7 | 6 | i | -6
CCN(CC(=O)Nc1c(F)cccc1F)C(=O)Cc1n[nH]c(=O)c2ccccc12 | . | . | -10 | -2 | -1 | 1 | i | .
O=C(CSc1ccc(F)cc1)NC12CC3CC(CC(C3)C1)C2 | 29 | -10 | -35 | 1 | 2 | -3 | i | -8
CCc1cccc(OC2OC(CO)C(O)C(O)C2NC(C)=O)c1 (stereo not given) | -8 | 9 | 1 | -8 | -4 | 1 | i | 0
COc1cccc(OCC(O)CN2CC(C)CC(C)C2)c1 (stereo not given) | . | -2 | -10 | 4 | 2 | 4 | i | 3
O=C(Cn1ccc2ccccc2c1=O)NCCC(=O)Nc1ccc(F)cc1F | -11 | 2 | -8 | 1 | 4 | 4 | . | -1
COc1ccc(O)c(-c2[nH]ncc2C(=O)c2ccccc2)c1 | . | 7 | -15 | -3 | -7 | -7 | i | -3
COC(=O)c1cccc(NC(=O)C(C)N2C(=O)c3ccccc3C2=O)c1 (stereo not given) | . | -1 | -6 | -17 | 1 | 9 | . | 10

The closing two compounds of the part above open the next one:
SMILES | HIV Env fusion | eIF4H inh | UUG fidelity | CSC inhib | MT1-MMP act inh | MT1-MMP act inh RFP | Rce1 inh | PABP FP inh
COc1ccc(O)c(-c2[nH]ncc2C(=O)c2ccccc2)c1 | . | 7 | -15 | -3 | -7 | -7 | i | -3
COC(=O)c1cccc(NC(=O)C(C)N2C(=O)c3ccccc3C2=O)c1 (stereo not given) | . | -1 | -6 | -17 | 1 | 9 | . | 10
CCCc1nc2sc3ccccc3c(=O)c2c(=O)n1CCOC | . | 12 | . | -15 | . | . | i | 4
CCC1CCCCN1C(=O)CCc1nnc(Cc2cc(OC)ccc2OC)o1 (stereo not given) | -10 | -4 | . | -1 | -2 | 1 | i | 7
O=C1N[C@@H](Cc2ccccc2)C(=O)N2[C@@H]1C[C@]1(Br)c3ccccc3N(S(=O)(=O)c3ccccc3)[C@H]21 | 3 | . | . | -11 | . | . | i | .
COCCC(=O)N1CCC(Oc2ccc(C(=O)N3CCCC(COC)C3)cc2)CC1 (stereo not given) | 14 | -2 | -11 | . | -1 | -2 | i | -5
CCn1nc(C)c(CNC(=O)c2ccc(OC3CCN(Cc4ccccn4)CC3)cc2)c1C | 35 | -9 | -7 | -5 | 9 | -27 | i | -6
Cc1ccc(CSc2nc3ccccc3c(=O)n2CCCC(=O)NCc2ccco2)cc1 | 20 | -8 | -17 | 34 | -2 | -6 | i | 6
Cc1cc(C)cc(OCC(=O)NCC2CCCO2)c1 (stereo not given) | . | -2 | -34 | -8 | 3 | 2 | i | -4
CN(CCc1ccccn1)C(=O)CCC1CCCN(C(=O)c2ccccn2)C1 (stereo not given) | 9 | 3 | -17 | -6 | -1 | 5 | i | -4
O=C(CSc1ccc(C(F)(F)F)cc1[N+](=O)[O-])Nc1ccccc1 | . | -6 | -20 | -5 | -1 | 1 | . | -10
O=C(Oc1ccccc1C(=O)Nc1ccccc1)c1ccccc1Br | -173 | -2 | -24 | 31 | 6 | -11 | i | -9
CCCCn1c(N)c(N(CC(C)C)C(=O)c2cc3c(s2)CCCCC3)c(=O)[nH]c1=O | 7 | . | . | -4 | -4 | -2 | i | .
COc1ccc2cc(CN(CC3CCCO3)S(=O)(=O)c3ccccc3)c(=O)[nH]c2c1 (stereo not given) | . | -7 | -8 | 2 | 4 | -3 | i | -6
COCCNc1ncnc2c1ncn2[C@H]1CN(Cc2ccc(F)cc2)C[C@@H](CO)O1 | -4 | . | -34 | . | 0 | 1 | . | .
Cc1ccc(C(c2nnnn2CS(=O)(=O)c2ccc(C)cc2)N2CCC(C)CC2)cc1 (stereo not given) | 53 | -6 | -15 | 0 | -9 | -10 | i | 3
CC1Cc2ccccc2C(CCc2ccccc2)=N1 (stereo not given) | 7 | 2 | -13 | -8 | 0 | 2 | i | 6
CS(=O)(=O)N1CCC(C(=O)O)CC1 | . | -3 | -27 | -6 | 5 | 5 | i | 1
COc1cc(C(=O)NNC(=O)COc2cccc(F)c2)ccc1OCC(=O)N1CCOCC1 | . | . | -9 | -13 | 4 | 0 | . | .
CC(=O)Nc1ccc(NC(=O)C(OC(=O)c2ccccc2)C(OC(=O)c2ccccc2)C(=O)O)cc1 (stereo not given) | 18 | -2 | . | -19 | -3 | -1 | i | -5
C=CCOc1ccc(/C=N/NC(=O)C(C)Sc2ccccn2)cc1OC (stereo not given) | 10 | 1 | -2 | -4 | 1 | 1 | i | 5
COCCNC(=O)C1Cc2c(-c3ccc(NC(C)=O)cc3)ccnc2O1 (stereo not given) | 10 | . | -11 | . | 1 | -1 | . | .
CCCn1c(O)c(N=Nc2ccc3ccccc3n2)c2ccccc21 | -5 | -1 | -10 | 37 | 0 | 1 | i | 4
CCN1C(=O)CC(NNC(=O)c2ccc(Cl)cc2)C1=O (stereo not given) | -35 | -6 | -23 | -8 | -1 | 7 | i | 4

Among those listed so far, two have a CF3 group:
SMILES | HIV Env fusion | eIF4H inh | UUG fidelity | CSC inhib | MT1-MMP act inh | MT1-MMP act inh RFP | Rce1 inh | PABP FP inh
Cc1ccc(-c2csc(NCCn3c(C)nc4cc(C(F)(F)F)ccc43)n2)cc1 | 10 | . | -13 | 29 | 5 | 4 | . | .
O=C(CSc1ccc(C(F)(F)F)cc1[N+](=O)[O-])Nc1ccccc1 | . | -6 | -20 | -5 | -1 | 1 | . | -10
